High-throughput results (PubChem BioAssay)
UCH37 inh: blocks the human deubiquitinase UCH37 | Q9Y5K5 | purified proteasome/UCH37, Ub-AMC cleavage fluorescence | inhibition, % (test concentration not listed) | 0.33% of 330,000 active;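 active = mean of two replicates above 20%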;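 also: 0% = compound-free wells with enzyme and 100% = wells lacking proteasome; stock transfer was 100 nL into about 20 µL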
Target sequence (Q9Y5K5 whole entry, looked up): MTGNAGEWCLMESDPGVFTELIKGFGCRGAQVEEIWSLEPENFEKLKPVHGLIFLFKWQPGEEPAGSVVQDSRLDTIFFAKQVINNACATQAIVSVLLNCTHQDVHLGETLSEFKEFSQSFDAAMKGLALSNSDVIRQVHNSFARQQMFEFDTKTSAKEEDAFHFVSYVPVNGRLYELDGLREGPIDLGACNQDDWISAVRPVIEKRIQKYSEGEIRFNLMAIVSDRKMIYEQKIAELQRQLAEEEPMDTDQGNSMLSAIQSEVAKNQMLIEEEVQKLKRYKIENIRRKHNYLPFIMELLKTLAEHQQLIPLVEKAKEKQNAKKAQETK
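Signal – fluorescence, ex 355 nm, em 460 nm · System – Proteasome-bound UCH37 · Input – 0.15 nM proteasome as dispensed · Timing – 30 min preincubation with enzyme, 25 min cleavage at room temperature · Read-out basis – percent inhibition of cleavage signal versus uninhibited and no-proteasome wells · Medium – Tris-HCl pH 7.4 with ATP-MgCl2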
A1 inh: inhibitors of the anti-apoptotic protein A1, read as caspase activation | MEF A1-2A-BIM cells, Caspase-Glo 3/7 luminescence, 3 h; percent of clofoctol response, vehicle zero | caspase activation, % (concentration not given with the values) | 0.066% of 330,000 active | AID 2462;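 active = over half of replicate activation scores above 10%, or exactly half above 10 with the replicate mean above 10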;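 also: wells of about 30 µL received 50 nL stock; many hits fall short of the cut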
RanGTP-Impb inh: inhibitors of RanGTP-importin-beta interaction, primary screen, biochemical, FRET, CFP-Ran, YFP-importin-beta, homogeneous; cell-free CFP-Ran/YFP-importin-beta FRET ratio; inhibition, % (test concentration not listed); 1.1% of 300,000 active; AID 2216;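 active = most replicates above 15%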;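 also: 0% = DMSO wells and 100% = Ran loaded with GDP instead of GTP; wells of about 40 µL received 100 nL stock; the first replicate is given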
T cruzi inh: blocks replication of Trypanosoma cruzi; AID 1885; inhibition, % (no concentration beside the values); 1.4% of 300,000 active; T. cruzi beta-gal in NIH3T3, luminescence, 90 h;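 active = mean inhibition across valid replicates above about 55%, limit read from the data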;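 also: signal also drops with host cell toxicity which is not excluded here; 0% = plate median of DMSO wells and 100% = zero luminescence signal; higher percent means less beta-gal luminescence so fewer parasites; stock transfer was 50 nL into about 50 µL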
Calb FLC: C. albicans growth modulation with fluconazole; C. albicans CaCi-2 (fluconazole-resistant clinical isolate) + fluconazole, Alamar Blue growth, 48 h; growth inhibition, % (no concentration beside the values); 0.57% of 300,000 active; AID 1979;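 active = most replicates above 75%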;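 also: all wells also contain fluconazole at 8 µg/ml as a sub-toxic cotreatment; 0% = median of DMSO wells and 100% = median of geldanamycin control wells; wells of about 8 µL received 7.5 nL stock; the first replicate is given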
B2AR ag: agonists of human beta-2 adrenergic receptor inducing internalization; P07550; Am2.2-beta2AR cells, FAP receptor internalization, flow cytometry; reference of the scale not given here; response, % (test concentration not listed); 0.43% of 340,000 active; AID 504454;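 active = response above a set limit, near 3 SD of response in nonfluorescent compounds, cut at about 42% in these data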;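 also: stock transfer was 100 nL into about 11 µL; a reference agonist was the positive control; negative values mostly stem from fluorescent compounds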
Target sequence (P07550 whole entry, looked up): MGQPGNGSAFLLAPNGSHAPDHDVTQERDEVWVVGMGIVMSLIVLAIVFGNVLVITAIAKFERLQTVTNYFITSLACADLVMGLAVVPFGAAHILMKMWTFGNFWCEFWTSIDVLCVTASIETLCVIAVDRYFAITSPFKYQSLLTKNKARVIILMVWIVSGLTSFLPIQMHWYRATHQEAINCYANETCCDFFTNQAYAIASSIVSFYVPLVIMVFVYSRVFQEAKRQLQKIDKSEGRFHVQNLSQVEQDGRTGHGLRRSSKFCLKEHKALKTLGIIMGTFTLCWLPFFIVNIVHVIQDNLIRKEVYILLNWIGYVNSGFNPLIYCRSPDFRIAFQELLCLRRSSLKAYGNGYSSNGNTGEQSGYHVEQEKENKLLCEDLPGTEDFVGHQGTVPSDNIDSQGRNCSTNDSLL
LANA-H2B inh: blocks KSHV LANA binding to histone H2A/H2B; Q9QR71; cell-free LANA-H2A/H2B peptide, fluorescence polarization; inhibition, % (no concentration beside the values); 0.6% of 320,000 active; in the data active = inhibition mostly above about 10%, no sharp cut-off; inactive = mostly below about 6.7%;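 also: stock transfer was 7.5 nL into about 10 µL; 0% = median of vehicle wells and 100% = median of positive control wells; one replicate is shown; the record names a cut of 25% in any replicate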
Beta apoptosis: blocks beta cell apoptosis. INS-1E cytokine-induced death, ATP luminescence, 48 h; percent of positive-control rescue, neutral wells zero. 0.8% of 300,000 active. protection from apoptosis, % (concentration not given with the values);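 active = all replicates at 75% or more, or half of them and the mean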;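 also: 0% = cytokine-treated negative control wells and 100% = positive control rescue; higher means more ATP so stronger rescue from cytokine killing; wells of about 40 µL received 100 nL stock; the first replicate is given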
* marks the source's active call; other numbers are inactive results; x = no result given.

no.	SMILES	UCH37 inh	A1 inh	RanGTP-Impb inh	T cruzi inh	Calb FLC	B2AR ag	LANA-H2B inh	Beta apoptosis
1	CSCCC1NC(=O)N(CC(=O)Nc2cccc(S(=O)(=O)N3CCCCCC3)c2)C1=O (configuration not stated)	-1.6	1.6	x	x	x	3	0.3	3
2	CC(=O)COC(=O)CNC(=O)c1ccc(Br)cc1	3.4	0.4	-2.2	-1	-10	-1	-1.8	-4
3	CSCC[C@H](N)C(=O)NCC1CCC(C(=O)Nc2ccc3c(c2)OCO3)CC1 (some centres not stated)	-0.8	0.0	-3.0	5	-11	1	-4.2	1
4	CCOc1ccc2[nH]c(=O)c(C(c3nnnn3CCOC)N3CCOCC3)cc2c1 (configuration not stated)	-170	0.1	-3.4	-3	-4	3	-2.5	-5
5	CCN1CCC2(CCN(Cc3cn[nH]c3-c3ccc(OC)c(F)c3)C2)C1 (configuration not stated)	3.7	-0.4	-0.5	-25	-18	0	-4.9	-3
6	COc1cc2oc3ccccc3c2cc1N(CC(=O)N1CCCCC1)S(=O)(=O)c1ccc(C)cc1	2.1	-0.1	0.2	18	-4	-1	0.2	-1
7	COc1ccc(NC2CCCN(C(=O)Cn3ccc(C)n3)C2)cc1OC (configuration not stated)	3.4	-0.3	5.0	4	16	-2	7.7	-6
8	O=C(CC(=O)Nc1ccccn1)Nc1ccccn1	-0.4	1.6	3.6	-10	0	-1	0.8	-2
9	CCOC(=O)CC1CCCCN1C(=O)CCCn1nnnc1CN1CCOCC1 (configuration not stated)	0.2	0.2	3.8	-10	6	13	-1.0	-3
10	O=C(O)CCN1C(=O)c2ccc(NC(=O)CSCc3ccccc3)cc2C1=O	1.0	0.7	-4.3	-14	-1	1	1.1	-4

(cont.)
no.	SMILES	UCH37 inh	A1 inh	RanGTP-Impb inh	T cruzi inh	Calb FLC	B2AR ag	LANA-H2B inh	Beta apoptosis
11	CCCS(=O)(=O)N1CCC(C(=O)NCCCN2CCC(Cc3ccccc3)CC2)CC1	3.2	0.2	-1.8	-16	5	-2	8.3	-2
12	CCC(=O)Nc1ccc(NC(=O)c2cc3ccccc3o2)cc1	5.1	-0.6	x	x	0	-6	5.6	4
13	CC(NC(=O)CCc1nnc(C2CCCCC2)o1)c1ccc(F)cc1 (configuration not stated)	1.7	0.1	-1.9	-9	-18	2	0.1	-8
14	COc1ccc(OC)c(S(=O)(=O)Nc2cccc(F)c2)c1	0.0	-0.2	5.2	12	12	-4	-1.6	-7
15	CCNC(=O)NC(=O)C(C)Sc1ccc2c(c1)OCCO2 (configuration not stated)	-1.4	-0.3	x	x	x	-1	4.0	-8
16	CCOC(=O)c1c(S(=O)(=O)NCC(C)c2ccccc2)c(C)n(C)c1C (configuration not stated)	4.7	0.2	0.7	12	-4	4	-1.5	-7
17	Cc1cc[n+](-c2[nH]c(=O)sc2/C=N/N=C(\[O-])c2ccncc2)cc1C	x	-0.9	-1.5	-6	41	2	1.0	5
18	CN(Cc1cnccn1)C(=O)CC1C(=O)NCCN1Cc1ccc(F)cc1Cl (configuration not stated)	-18	-0.1	2.4	-13	7	5	-2.8	-5
19	CC(=O)Nc1ccccc1C(F)(F)F	0.1	-0.5	-3.2	x	3	-1	2.6	-6
20	CCC(=O)Nc1nnc(S(=O)(=O)N2CCc3ccccc32)s1	-1.5	1.0	0.3	2	-1	-3	3.9	-11

New compounds follow.
no.	SMILES	UCH37 inh	A1 inh	RanGTP-Impb inh	T cruzi inh	Calb FLC	B2AR ag	LANA-H2B inh	Beta apoptosis
21	COc1ccccc1CC(=O)NCCc1ccc(S(N)(=O)=O)cc1	3.3	0.9	-1.0	-1	3	5	-0.6	-4
22	CC(C)c1ccc(CNc2nnnn2C)cc1	11	0.6	1.6	-5	5	0	4.2	-4
23	COc1ccc(C(=O)Nc2cnccn2)cc1[N+](=O)[O-]	1.6	0.6	3.2	0	-2	-4	1.1	-2
24	CS(=O)(=O)N1CCN(c2nnc(-c3ccccc3)c3ccccc23)CC1	8.2	0.2	-6.3	-3	44	-20	-5.3	x
25	Cc1cc(NS(=O)(=O)c2ccc(NC(=O)CSc3nc4sc(C(=O)O)c(C)c4c(=O)[nH]3)cc2)no1	6.1	-0.3	1.5	-14	-2	-7	0.5	-4
26	COc1ccc(NC(=O)c2ccc(S(=O)(=O)NCc3cccnc3)cc2)cc1	-2.1	-0.1	-2.2	-7	2	-2	-0.1	-1
27	Cc1c(Cl)cccc1NC(=O)Cn1nc(C)n2cccc2c1=O	0.2	-0.4	0.6	3	-3	3	-2.8	x
28	COCCNC(=S)Nc1ccccn1	1.0	0.0	0.9	-7	-8	0	-2.6	-2
29	CCOc1cc(/C=C2\SC(=N)N(c3nccs3)C2=O)ccc1OCCN1CCOCC1	10	-0.6	1.0	-3	-2	14	-4.8	32
30	CN1CCN(C(=S)NC(=O)c2ccco2)CC1	2.0	-0.7	3.3	-23	-14	0	1.8	-10

Next structures follow:
no.	SMILES	UCH37 inh	A1 inh	RanGTP-Impb inh	T cruzi inh	Calb FLC	B2AR ag	LANA-H2B inh	Beta apoptosis
31	CCOC(=O)COc1coc(CN2CCN(c3ccc(F)cc3)CC2)cc1=O	1.9	0.4	2.5	6	0	12	-1.5	x
32	O=C(CC1Sc2ccccc2NC1=O)NCc1ccc(Cl)cc1 (configuration not stated)	1.3	-0.5	-2.3	-5	-4	-2	-3.1	0
33	CCc1ccc2nc(N3CCN(C(=O)C(C)(C)C)CC3)sc2c1	3.8	1.3	-1.4	-1	-5	6	-0.8	x
34	Cc1cc(NC(=O)CSc2ccccc2)no1	2.7	0.4	0.0	-14	-5	0	3.3	-9
35	O=C(Nc1ccccc1)Nc1ccc2ocnc2c1	1.9	-6.5	2.7	-6	11	5	-2.5	5
36	COc1ccc(N2CS(=O)CC2=O)cc1 (configuration not stated)	5.3	-0.2	-1.7	-4	11	2	-2.1	-2
37	COc1ccc(C2(c3ccc(OC)cc3)NC(=O)N(CC(=O)NCC(C)c3ccccc3)C2=O)cc1 (configuration not stated)	1.4	0.6	x	x	x	1	-1.1	-4
38	Cc1ccc(C)c(NC(=S)N(CCc2nc3cc(C)c(C)cc3[nH]2)Cc2cccnc2)c1	3.6	0.3	7.6	66*	7	-1	2.4	-11
39	CC1CN(C(=O)C2CC(=O)N(c3ccc(Cl)cc3)C2)CC(C)O1 (configuration not stated)	1.6	0.3	1.4	-16	-9	-4	0.4	2
40	C/C(=N\Nc1nc2ccc(Cl)cc2o1)c1ccccc1	x	-0.3	5.1	-15	2	-3	-8.8	4

(more compounds)
no.	SMILES	UCH37 inh	A1 inh	RanGTP-Impb inh	T cruzi inh	Calb FLC	B2AR ag	LANA-H2B inh	Beta apoptosis
41	O=C(CN(Cc1ccco1)C(=O)c1ccc(F)cc1F)Nc1ccccc1C(F)(F)F	1.9	-0.1	x	x	x	-4	-1.6	0
42	COc1ccc(NC(=O)CN(C)C(=O)C2CC(=O)N(Cc3ccc(C)cc3)C2)cc1 (configuration not stated)	3.5	0.3	x	-3	-7	-12	2.2	3
43	COc1ccc(N(CC(=O)Nc2ccccc2Cl)S(=O)(=O)c2ccc(C)cc2)cc1OC	2.2	0.4	0.0	3	0	-9	5.9	2
44	Cc1cc2cc(CNC(=O)c3cccs3)ccc2n1C	0.2	0.3	-2.0	50	-12	7	78*	0
45	Cc1cc2cc(C)c3nnc(SCC(=O)NCc4ccco4)n3c2cc1C	-0.1	0.0	0.2	17	-1	3	0.4	1
46	CC(=O)Nc1cccc(NC(=O)c2c(-c3ccccc3Cl)noc2C)c1	-1.6	0.1	0.3	-11	-10	4	1.9	5
47	c1ccc2c(c1)nc(CN1CCOCC1)n1c3ccccc3nc21	-117	-0.9	6.5	9	-1	-11	2.0	2
48	COc1ccccc1N(CC(O)CN1CCOCC1)S(=O)(=O)c1ccccc1 (configuration not stated)	0.8	-0.2	-1.7	-10	-3	-4	-10	-8
49	Cc1ccc(C(=O)N2CC(=O)Nc3ccc(F)cc3C2c2ccccc2)cc1 (configuration not stated)	1.8	-0.5	-0.7	14	1	6	-6.2	-2
50	O=c1[nH]c(SCc2ccc(Cl)cc2)nc2ccsc12	2.4	-0.1	8.5	10	35	x	3.4	-3

New compounds follow:
no.	SMILES	UCH37 inh	A1 inh	RanGTP-Impb inh	T cruzi inh	Calb FLC	B2AR ag	LANA-H2B inh	Beta apoptosis
51	COc1cc(NC(=O)c2nccnc2N)cc(C(=O)Nc2cccc(C(F)(F)F)c2)c1	-1.2	0.9	-1.6	4	-6	7	-0.6	4
52	CCC(=O)Oc1cccc(C(=O)Nc2cccc(NC(=O)c3ccco3)c2)c1	5.9	-0.4	3.5	-17	-14	-5	-8.3	-4
53	CCCCCCSc1ccc([C@H]2N[C@@](Cc3ccccc3)(C(=O)OC)[C@H]3C(=O)N(C)C(=O)[C@@H]23)cc1OC	2.6	0.3	3.8	5	1	0	-0.9	x
54	COCCNC(=O)CSc1nc2cc(OC)c(OC)cc2c(=O)n1Cc1ccc(OC)cc1	x	0.2	4.0	-3	27	-2	-0.9	-8
55	CCOc1ccc2nc(NCCNC(=O)c3cc(OC)c(OC)c(OC)c3)c(C#N)cc2c1	-64	0.0	113*	3	1	-1	-3.5	-2
56	Cc1ccc(OCC(=O)N2CCCCC2C)c([N+](=O)[O-])n1 (configuration not stated)	7.5	-0.6	x	x	x	4	-3.4	-5
57	O=C(Cc1nc2ccccc2s1)c1ccc(O)cc1O	x	-0.1	0.0	2	91*	x	-8.2	-4
58	O=C(CN1C(=O)CCS(=O)(=O)c2ccccc21)Nc1ccccc1F	3.7	0.5	-3.5	-14	13	3	-0.3	1
59	CCCCCc1cc(=O)oc2c(C(CCN3CCN(c4ccccc4)CC3)c3ccc4c(c3)OCO4)c(OC)cc(OC)c12 (configuration not stated)	-1.5	0.2	-5.6	34	-9	-1	0.5	7
60	Brc1ccc(CN2CCN(c3ccccc3)CC2)o1	4.2	0.0	2.4	-8	-48	-2	5.5	-1

Further structures.
no.	SMILES	UCH37 inh	A1 inh	RanGTP-Impb inh	T cruzi inh	Calb FLC	B2AR ag	LANA-H2B inh	Beta apoptosis
61	Nc1c(C(=O)CSc2nnc(COc3ccc(Cl)cc3)o2)c(=O)[nH]c(=O)n1C1CC1	-1.1	-0.4	x	x	x	15	0.1	1
62	COc1ccc(-c2cnc3nc(/N=C/N(C)C)nn3c2/N=C/N(C)C)cc1	x	1.4	0.0	-9	2	-5	3.1	-3
63	CCN1CCN(CCCNC(=O)c2ccc(NC(=O)C3=CSCCO3)cc2)CC1	0.5	0.6	1.0	-14	1	-12	1.5	-5
64	CCOc1cc(/C=N\n2nnnc2N)ccc1O	x	0.3	4.1	-13	-2	5	-6.6	x
